CtBP-E1A blk: CtBP/E1A binding inhibition; AlphaScreen GST-E1A/His-CtBP binding, 1536-well; active compounds read low; control for the full effect not named in the record; activity change, % (concentration not given with the values); actives 0.49% (n = 340,000); AID 651724; in the data active means activity change below about -65%; inconclusive means about -30% to -65%; inactive means above about -30%; further: on the % scale 0 is the no-effect control and ±100 the full control effect
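GST-E1A and His-tagged CtBP (125 nM each as 5X stock) were preincubated with pin-transferred compound for 2 h at 37 °C in the dark, then glutathione donor and nickel acceptor beads were added for 1 h before AlphaScreen reading.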
TRPML1 inh: blocks the human TRPML1 channel; Q9GZU1; TRPML1-inducible cells, Ca2+ dye fluorescence, FDSS; active compounds read low; inhibition of EC80 agonist-evoked calcium signal; activity change, negative = inhibition, % (test concentration not listed); actives 0.02% (n = 390,000); in the data active means activity change below about -50%; inconclusive means about -30% to -50%; inactive means above about -30%;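 further: stimulus is agonist 54-4 at its EC80 concentration; on the % scale 0 is the no-effect control and ±100 the full control effect; compound concentration not given in the record; the text of the record puts the active cut at -80%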
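TRPML1-DL cells, Tet-induced overnight (~16 h, 37 °C) at 1,500 cells/well, were loaded with Ca8 no-wash dye plus quencher for 45-90 min at room temperature. Compounds were pinned during FDSS kinetic reading; agonist 54-4 at EC80 (4 uM final) then added.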
TRPV1 PAM: human TRPV1 potentiation; Q8NER1; TRPV1-expressing cells, Fluo-8 calcium influx, capsaicin EC20 potentiation; host cell line not named in the record; control for the full effect not named in the record; potentiation, % at 8.33 µM; actives 0.02% (n = 320,000); active means potentiation above 80%; inconclusive means 30% to 80%; inactive means below 30%; further: 0% is about no effect
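Cells expressing TRPV1 were dye-loaded with Fluo-8 and read kinetically: 10 s baseline, 3 min after compound (agonist portion), then 2 min after EC20 capsaicin (allosteric enhancer portion). Calcium-bound dye fluorescence at 480/520 nm.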
D2 potentiator: human D2 receptor positive allosteric modulation | potentiation, % (no concentration beside the values) | P14416 | actives 0.23% (n = 360,000) | DiscoveRx D2 beta-arrestin cells, luminescence, 90 min; 100% = 57 uM dopamine signal; active = potentiation of 50% or more; inconclusive = 30% to 50%; inactive = 30% or less;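 further: compound concentration not given in the record; tested on top of an EC20 dose of dopamine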
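PathHunter beta-arrestin assay in DiscoveRx D2 cells. Compounds were added with an EC20 of dopamine (50 nM final) for 90 min at 37 deg C. Luminescence was read 1 h after detection reagent, with 57 uM dopamine as the EC100 control.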
TRPML1 ag: agonists of human TRPML1 channel | actives 0.12% (n = 410,000) | activation, % (no concentration beside the values) | Q9GZU1 | TRPML1-expressing cells, Ca2+ dye fluorescence, FDSS; host cell line not named in the record; reference of the full effect not given here; in the data active = activation above about 50%; inconclusive = about 30% to 50%; inactive = below about 30%; further: 0% is about no effect; the text of the record puts the active cut at 80%
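In this qHTS format, compounds were pin-transferred onto Ca8-dye-loaded TRPML1-DL cells induced with Tet overnight, and intracellular Ca2+ fluorescence was recorded kinetically for 110 s after a 10 s baseline. A subsequent 4uM final 54-4 (EC80) addition followed by a second 110 s read served as the antagonist phase.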
Six1-Eya2 blk: blocks human Six1 binding to Eya2; Q15475+O00167; AlphaScreen GST-Six1/His-Eya2 binding, biochemical; active compounds read low; control for the full effect not named in the record; activity change, % (test concentration not listed); actives 0.56% (n = 360,000); in the data active = activity change below about -65%; inconclusive = about -30% to -65%; inactive = above about -30%; further: on the % scale 0 is the no-effect control and ±100 the full control effect
Target sequence (O00167 whole entry, looked up): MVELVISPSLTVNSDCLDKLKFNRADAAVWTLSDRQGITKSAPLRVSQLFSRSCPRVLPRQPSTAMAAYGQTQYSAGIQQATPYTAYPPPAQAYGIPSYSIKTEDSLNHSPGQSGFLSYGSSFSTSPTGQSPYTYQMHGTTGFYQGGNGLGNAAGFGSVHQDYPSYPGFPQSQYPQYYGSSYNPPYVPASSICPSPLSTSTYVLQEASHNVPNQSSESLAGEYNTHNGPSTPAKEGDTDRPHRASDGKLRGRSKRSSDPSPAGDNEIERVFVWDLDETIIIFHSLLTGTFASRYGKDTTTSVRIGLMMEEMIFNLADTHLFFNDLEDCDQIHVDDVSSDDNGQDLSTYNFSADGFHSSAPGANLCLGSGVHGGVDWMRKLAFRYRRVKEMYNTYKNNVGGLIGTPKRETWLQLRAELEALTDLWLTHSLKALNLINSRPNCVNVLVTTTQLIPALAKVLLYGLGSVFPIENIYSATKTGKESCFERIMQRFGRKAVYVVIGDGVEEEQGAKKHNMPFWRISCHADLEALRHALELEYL
Target sequence (Q15475 whole entry, looked up): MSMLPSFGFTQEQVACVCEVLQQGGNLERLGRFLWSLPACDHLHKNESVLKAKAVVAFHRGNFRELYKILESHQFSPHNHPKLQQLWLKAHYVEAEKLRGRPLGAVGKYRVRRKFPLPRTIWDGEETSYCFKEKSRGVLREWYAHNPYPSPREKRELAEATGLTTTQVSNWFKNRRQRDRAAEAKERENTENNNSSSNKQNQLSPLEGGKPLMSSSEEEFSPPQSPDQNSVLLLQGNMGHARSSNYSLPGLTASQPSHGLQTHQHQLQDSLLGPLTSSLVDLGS
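AlphaScreen with GST-Six1 and His-Eya2 (5X mix: 250 nM and 500 nM), glutathione donor and nickel acceptor beads; buffer 50 mM Tris pH 8.0, 300 mM NaCl, 1 mM TCEP; 1 h at 37 C in the dark.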
* hit, by the source's call; u = inconclusive; x = no result given.

Sequence of screens: CtBP-E1A blk	TRPML1 inh	TRPV1 PAM	D2 potentiator	TRPML1 ag	Six1-Eya2 blk
C/C(Cc1ccccc1)=N\NC(=O)C1CCCCC1
 : -2	-10	8	9	0.9	1
COC(=O)[C@]12CCCCC=C1N(Cc1ccc(Cl)cc1Cl)C(=O)[C@H](CC(=O)N1CCC(c3ccccc3)CC1)C2
 : u	x	x	x	0.2	-3
CC(c1ccccc1)C1CC(=O)N(CC(=O)O)C1=O (configuration not stated)
 : 6	-2	7	-1	0.4	4
CN(CCOc1cccc(C(F)(F)F)c1)Cc1ccccc1
 : 11	19	-2	-20	1.6	27
COc1cc(C(=O)Nc2cc(C(F)(F)F)ccc2-n2cncn2)cc(OC)c1OC
 : 5	-13	7	-17	1.3	6
COc1cc(CC(=O)N(C)CC(=O)Nc2cc(C)ccc2C)cc(OC)c1OC
 : 0	7	24	-17	-1.4	11
COc1cccc(C(=O)NC23CC4CC(CC(C4)C2)C3)c1
 : 8	5	-14	-4	0.5	28
Cc1ccc(NC(=O)[C@@H]2CCCN2S(=O)(=O)c2ccccc2F)cc1
 : -2	21	-15	2	-0.7	-1
O=C(Cc1ccc(F)cc1)Nc1ccc(F)c([N+](=O)[O-])c1
 : 0	-6	-21	-4	-0.5	-4
COc1cc(-c2nnc(-c3cccs3)o2)cc(OC)c1OC
 : -2	0	-2	-23	-0.6	4
CC(/C=C/c1ccc(OCc2ccccc2)cc1)=N\O
 : 10	-7	-5	3	0.3	8
C=CCn1c(SCC(=O)Nc2ccc3c(c2)OCCO3)nnc1-c1ccco1
 : 17	-5	2	-17	0.3	3
CCOC(=O)C1=C(C)NC(=O)NC1/C=C/c1ccccc1OC (configuration not stated)
 : -6	4	1	-3	-0.1	-1
COc1ccc(Cl)cc1Nc1nc(-c2cccnc2)cs1
 : 1	35	-5	-15	1.0	-1
COc1ccccc1C(=O)NC(CCSC)C(=O)NNC(=O)c1ccccc1C (configuration not stated)
 : 0	20	9	15	0.5	2
CCOC(=O)c1ccc(NC(=O)NCc2ccccc2OC)cc1
 : 0	3	16	-10	-0.4	4
CSc1nnc(N2C(=O)C(O)=C(C(=O)c3ccco3)C2c2cccc(Cl)c2)s1 (configuration not stated)
 : x	-20	5	-4	-0.5	9
CNC(=O)c1c(NC(=O)C2=COCCO2)sc2c1CCN(C(=O)OC)C2
 : 9	0	2	1	0.1	-2
COc1ccccc1NC(=O)Cn1c(=O)n(CCc2c[nH]c3ccccc23)c(=O)c2cccnc21
 : 6	8	u	-4	-0.4	3
C/C(=N/NC(=O)c1ccc(Cl)s1)c1cccnc1
 : -1	-7	-26	-11	0.2	-6

Quoted at random: 3 entries already listed, in no set order.
Sequence of screens: CtBP-E1A blk	TRPML1 inh	TRPV1 PAM	D2 potentiator	TRPML1 ag	Six1-Eya2 blk
COc1ccc(Cl)cc1Nc1nc(-c2cccnc2)cs1
 : 1	35	-5	-15	1.0	-1
CCOC(=O)C1=C(C)NC(=O)NC1/C=C/c1ccccc1OC (configuration not stated)
 : -6	4	1	-3	-0.1	-1
CNC(=O)c1c(NC(=O)C2=COCCO2)sc2c1CCN(C(=O)OC)C2
 : 9	0	2	1	0.1	-2

The main list resumes; the 2 compounds before the break are reprinted first.
Sequence of screens: CtBP-E1A blk	TRPML1 inh	TRPV1 PAM	D2 potentiator	TRPML1 ag	Six1-Eya2 blk
COc1ccccc1NC(=O)Cn1c(=O)n(CCc2c[nH]c3ccccc23)c(=O)c2cccnc21
 : 6	8	u	-4	-0.4	3
C/C(=N/NC(=O)c1ccc(Cl)s1)c1cccnc1
 : -1	-7	-26	-11	0.2	-6
Cc1ccc(-c2ccc3nnc(SCC(N)=O)n3n2)cc1
 : 1	-7	-14	-1	1.4	-3
Cc1nc(N2CCOCC2)nc(N2CCN(c3ccccc3)CC2)c1[N+](=O)[O-]
 : 2	-24	-20	-7	-0.7	3
Cc1c(Cl)c(-c2n[nH]c(=S)n2-c2ccccc2)nn1C
 : 23	-11	20	-28	1.2	2
Cc1cc(C)nc(NC(=NCCc2c[nH]c3ccccc23)NC(=O)Nc2cccc([N+](=O)[O-])c2)n1
 : 4	13	16	15	0.2	16
COc1ccc(S(=O)(=O)Nc2ccc(-c3ccc4nncn4n3)cc2)c(OC)c1
 : -1	10	7	12	0.5	-5
Cc1cc2ncn(CS(C)(=O)=O)c2cc1C
 : 8	-10	-2	3	0.2	11
COc1ccc(Cl)cc1NC(=O)CN(C)C(=O)c1ccc(N2CCCCC2)c([N+](=O)[O-])c1
 : 2	-14	-7	-33	61*	u
CCN(CC)c1ccc(NC(=O)COC(=O)CSc2ccc(Br)cc2C)cc1
 : 2	7	-5	8	0.4	u
O=C(N/N=C/c1ccccc1O)C(=O)N1CCCCCC1
 : -88*	10	-8	0	0.7	-79*
CCCCc1nc2ccccc2c(NC(=O)CNC(C)(C)C)c1CCC
 : 4	-1	24	-16	0.3	4
O=C(N/N=C/c1cccs1)c1[nH]ncc1Br
 : -2	3	-2	-4	-0.5	-7
COc1ccccc1Cn1c(=S)[nH]c2cc(C(=O)NCc3cccnc3)ccc2c1=O
 : 5	6	-6	-9	-0.5	-25
CCOC(CC(=O)NNC(=O)c1c(-c2ccccc2Cl)noc1C)OCC
 : x	-1	-14	2	0.4	-4
O=C(O)c1cccc(NC(=O)c2ccc3c(c2)C(=O)N(Cc2ccco2)C3=O)c1
 : -1	-3	7	-4	-0.6	-17
COc1cc2c(cc1OC)CN(C(=O)c1cc(S(=O)(=O)N3CCOCC3)ccc1Cl)CC2
 : -5	-6	3	u	2.1	-1
COc1cc(/C=N/NC(=Nc2ccc(C)cc2)c2nc3ccccc3s2)ccc1O
 : -8	3	-25	-9	1.4	-5
O=C(COc1coc(CN2CCN(c3ccc(F)cc3)CC2)cc1=O)NCC1CCCO1 (configuration not stated)
 : 1	-2	-12	-1	0.7	6
COc1cc(C(=O)Nc2cccc(C)c2C)c(Br)c(OC)c1OC
 : -2	9	3	1	2.4	3
COC(=O)c1sc(-c2ccc(C(C)(C)C)cc2)cc1NC(=O)c1ccccc1C(=O)O
 : 2	20	-7	7	1.6	-6
COc1ccc(S(=O)(=O)N2CCOC23CCN(S(=O)(=O)c2cc(C)ccc2OC)CC3)cc1
 : 9	15	10	-16	-0.3	-4

Ordered by the number under D2 potentiator (rising): some entries from above.
| mol | CtBP-E1A blk | TRPML1 inh | D2 potentiator | Six1-Eya2 blk |
| --- | --- | --- | --- | --- |
| CCCCc1nc2ccccc2c(NC(=O)CNC(C)(C)C)c1CCC | 4 | -1 | -16 | 4 |
| COc1ccccc1Cn1c(=S)[nH]c2cc(C(=O)NCc3cccnc3)ccc2c1=O | 5 | 6 | -9 | -25 |
| O=C(N/N=C/c1ccccc1O)C(=O)N1CCCCCC1 | -88* | 10 | 0 | -79* |

Next section.
Sequence of screens: CtBP-E1A blk	TRPML1 inh	TRPV1 PAM	D2 potentiator	TRPML1 ag	Six1-Eya2 blk
O=C(NC(=S)Nc1ccc(C(=O)N2CCOCC2)cc1)c1ccc([N+](=O)[O-])cc1
 : -3	-15	18	-4	0.0	-7
Cn1ncc([N+](=O)[O-])c1C(=O)Nc1ccccc1
 : x	7	u	-4	-0.5	5
COc1ccc(OC)c(NC(=O)COC(=O)c2n[nH]c3ccccc23)c1
 : -14	14	-1	0	0.5	-14
CC(=O)Nc1ccc(NS(=O)(=O)c2cc(Cl)ccc2Cl)cc1
 : 0	24	-10	1	1.3	5
CS(=O)(=O)N1N=C(c2ccco2)CC1c1ccco1 (configuration not stated)
 : x	14	2	0	-0.4	-13
CCN(CC)CCSc1nnc2c3ccccc3n(Cc3ccccc3)c2n1
 : u	26	-3	-26	1.9	-12
CC1CCC(NC(=O)c2cccc(S(=O)(=O)N3CCN(c4ccccc4)CC3)c2)CC1 (configuration not stated)
 : 3	39	-8	-9	-0.7	-5
O=C(COc1ccccc1)NNC(=S)NC(=O)c1ccc(Cl)cc1Cl
 : -5	-5	11	-14	4.7	0
COc1ccc(-c2cc(-c3ccccc3)c(C#N)c(=S)[nH]2)cc1
 : x	12	-3	-8	-0.9	5
Cc1cc(C)c(OCC(=O)OCCNC(=O)c2cccnc2)c(C)c1
 : 4	-12	-14	-15	0.4	4
CCOC(=O)C1Sc2ccccc2NC1=O (configuration not stated)
 : 0	-3	18	0	-0.7	0
COCc1cc(C)nc(N2CCCCC2)c1C#N
 : 10	-2	2	-21	0.2	20
COc1ccccc1-c1sc2ccccc2c1-c1cnc(N2CCOCC2)nc1
 : -2	x	x	x	3.8	0
NC1=NC(=O)C2(COC(c3ccncc3)OC2)S1 (configuration not stated)
 : x	-1	3	-5	0.9	-1
O=C(Nc1nccs1)c1cn2ccccc2n1
 : x	0	-4	-14	0.4	-13
CCCc1nc2n[nH]c(N)c2c2c1CCC2
 : -2	-3	18	-8	-0.1	1
Cc1cc(C)cc(OCCN2CCOCC2)c1
 : 2	1	12	-4	0.0	2
Cc1cc(C)c2[nH]c(=O)c(C(c3nnnn3C(C)(C)C)N3CCN(C(=O)c4ccco4)CC3)cc2c1 (configuration not stated)
 : 4	-5	-7	-6	0.5	-2
CCOc1cc(S(=O)(=O)NCc2ccccc2)ccc1F
 : 3	-11	u	u	0.3	2
COc1ccc(CN2CCC(n3nccc3NC(=O)C3CC3)CC2)cc1O
 : -1	31	7	-24	0.0	1
CCOCC(=O)Nc1nc2ccc(C)cc2s1
 : 4	9	-24	-7	-0.6	-1
O=C(NNC(=O)c1ccc(Cl)cc1Cl)c1ccncc1
 : -2	2	0	-4	0.4	6
CS(=O)(=O)N(Cc1ccc(C(=O)NN=C2CCCCCC2)cc1)c1ccccc1
 : -9	2	-2	-3	3.3	6
CCCOc1ccc(S(=O)(=O)N2CCOCC2)cc1[N+](=O)[O-]
 : 2	15	-1	-4	-0.2	5
C=CCn1c(-c2ccncc2)n[nH]c1=S
 : 3	22	6	1	0.1	2
Cc1nnsc1SC(C)C(=O)O (configuration not stated)
 : 3	-14	-5	0	0.6	3
COc1cc(C)c(C(C)C)cc1S(=O)(=O)NC1CC(C)(C)NC(C)(C)C1
 : 8	24	5	1	0.0	-8
CC(C)(C)S(=O)N1Cc2cc(C(=O)NCc3ccc4c(c3)OCO4)nc(-c3cccc(-c4ccccc4)c3)c2[C@@H]1CCO (some centres not stated)
 : -9	21	x	-3	0.6	-11
O=C1CC(N2CCN(c3ccccc3)CC2)C(=O)N1c1ccc(Cl)cc1 (configuration not stated)
 : x	x	1	-5	x	15
CC1(C)NC(=O)N(CC(=O)OCC(=O)Nc2cc(S(=O)(=O)N3CCCCCC3)ccc2Cl)C1=O
 : 12	16	-2	4	0.3	0
Nn1c(=S)[nH]c2sc3c(c2c1=O)CCCC3
 : -10	14	x	0	0.9	-19
Cc1cc(N/C(=N/S(=O)(=O)c2ccc(F)cc2)c2ccccc2)n(-c2ccccc2)n1
 : 0	-9	-3	-4	1.1	-13
CCN1CCN(C(=O)c2ccc(CS(=O)(=O)Cc3ccccc3C)o2)CC1
 : 3	18	-6	-14	-0.4	1
CCCCCCN1C[C@H](O)[C@@H](n2cc(-c3ccc(F)cc3)nn2)C[C@@H]1c1ccc(Cl)cc1
 : -2	80	x	-7	1.2	-8
CCOC(=O)c1nnn(-c2nc(N3CCCC3)nc(N3CCCC3)n2)c1-c1ccccc1
 : 0	6	7	0	1.1	0
CC(=O)c1c(C)nc(-c2ccccc2)nc1NC(=O)C(C)C
 : -2	13	4	-26	-0.3	2
